Screens: PubChem, Johns Hopkins Ion Channel Center
KCNQ2 pot: potentiators of rat KCNQ2 potassium channel; CHO-K1 KCNQ2, FluxOR thallium flux fluorescence; active compounds read high; Potassium voltage-gated channel subfamily KQT member 2 (Rattus norvegicus), O88943; B-score at 10 µM; 310,000 tested, 0.54% active;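 active = fluorescence ratio B-score at least 3 SD of library B-scores, with initial fluorescence B-score within 3 SD, cut at about 5.3 in these data; same plate scores as AID 2156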;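 note: B-score of peak minus minimum over baseline fluorescence ratio after K+ and Tl+ stimulus; positive B-score means potentiation of KCNQ2 with more thallium influx and brighter signal; only the inactives scoring about 0 or higher are listed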
Target sequence (O88943 whole entry, looked up): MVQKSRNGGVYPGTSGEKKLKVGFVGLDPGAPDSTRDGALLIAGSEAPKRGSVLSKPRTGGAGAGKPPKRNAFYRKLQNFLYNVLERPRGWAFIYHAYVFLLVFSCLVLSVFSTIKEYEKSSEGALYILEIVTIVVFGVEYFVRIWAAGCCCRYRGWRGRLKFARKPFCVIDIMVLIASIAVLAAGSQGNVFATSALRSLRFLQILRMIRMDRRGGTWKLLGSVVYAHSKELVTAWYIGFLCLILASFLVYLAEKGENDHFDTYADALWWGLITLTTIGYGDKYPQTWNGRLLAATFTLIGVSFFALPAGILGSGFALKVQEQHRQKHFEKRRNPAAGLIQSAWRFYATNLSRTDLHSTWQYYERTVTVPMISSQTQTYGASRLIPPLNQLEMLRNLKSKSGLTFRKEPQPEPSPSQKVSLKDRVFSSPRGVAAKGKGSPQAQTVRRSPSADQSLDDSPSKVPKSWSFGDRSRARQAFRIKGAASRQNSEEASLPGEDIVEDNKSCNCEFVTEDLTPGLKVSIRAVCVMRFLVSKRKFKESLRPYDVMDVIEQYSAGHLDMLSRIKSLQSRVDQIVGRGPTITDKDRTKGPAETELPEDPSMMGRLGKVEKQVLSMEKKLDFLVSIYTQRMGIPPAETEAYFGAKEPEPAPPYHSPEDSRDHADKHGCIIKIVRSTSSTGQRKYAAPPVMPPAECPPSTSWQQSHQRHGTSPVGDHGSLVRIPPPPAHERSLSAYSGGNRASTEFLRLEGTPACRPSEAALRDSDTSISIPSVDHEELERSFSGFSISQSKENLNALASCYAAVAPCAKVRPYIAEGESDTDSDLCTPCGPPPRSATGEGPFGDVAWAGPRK
KCNQ2 pot baseline: also measured in KCNQ2 pot; calls as there; B-score; compound at 10 µM; measured here: initial fluorescence intensity artifact check;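 brightness before thallium and not channel activity; 0 = typical well and far values either way flag optical interference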
Starred values were filed as active, the others as inactive; · = not tested or not shown. The list is partial; count on the stated rates, not on these rows.

The line under a structure holds: KCNQ2 pot	KCNQ2 pot baseline
1) CC(C)(C)[C@]1(O)C[C@@H]2OC(=O)C[C@@]23C(=O)O[C@@H]2OC(=O)[C@H](O)[C@]213
 : 0.94	0.01
2) O=c1[nH]c(=O)n(Cc2ccccc2)c(O)c1C=NCCN1CCOCC1
 : 0.7	-1.61
3) C=CCn1c(=O)c(C=Nc2cccc([N+](=O)[O-])c2)c(O)n(CCCC)c1=O
 : 1.57	0
4) CCN(CC)C(=O)c1ccc(NC(=O)c2sccc2-c2ccccc2)cc1
 : 0.37	2
5) CCOC(=O)C(O)(c1cn(C)c2ccccc12)C(F)(F)F (stereo unspecified)
 : 0.95	-0.46
6) CC1C(OC(=O)CCC(=O)NC(C)(C)CO)O[C@H]2OC3(C)CC[C@H]4[C@H](C)CCC1C24OO3 (stereo partly specified)
 : 0.3	0.57
7) O=C(O)C1=CC2c3ccccc3C1c1ccccc12
 : 0.02	1.83
8) Cc1ccc(S(=O)(=O)CC(C)(O)C(=O)Nc2cccc(C(F)(F)F)c2)cc1 (stereo unspecified)
 : 1.31	0.28
9) CN1C(=O)C(c2ccc([N+](=O)[O-])cc2[N+](=O)[O-])C(=O)N(C)C1=O
 : 0.45	-1.44
10) Cc1ccc(Cn2cc(C=O)c3ccccc32)cc1
 : 0.21	-1.56
11) O=c1[nH]c(=O)n(Cc2ccccc2Cl)c(O)c1/C=C1/C=CC=N1
 : 0.33	-0.34
12) C/C=C1\CN2[C@H]3C[C@@]45c6ccccc6N(C)[C@H]4[C@@H]2CC1C3[C@H]5O (stereo partly specified)
 : 0.23	0.08
13) CC(C(O)c1ccccc1)N(C)CCn1cnc2c1c(=O)n(C)c(=O)n2C (stereo unspecified)
 : 0.14	0.63
14) CCc1c(C)nc(N)nc1N1N=C1SC
 : 2.67	-0.48
15) Cc1ccccc1NS(=O)(=O)c1ccc(OCC(=O)N2CCN(C)CC2)cc1
 : 0.04	-1.5
16) Cc1ccc(CN2CCCN(Cc3ccc(C)cc3)S2(=O)=O)cc1
 : 2.09	0.25
17) CCCCn1c(O)c(C(CC)=NCCCn2ccnc2)c(=O)[nH]c1=O
 : 0.88	0.07
18) Cc1cc(Br)c(NC(=O)CN2CC=C(c3ccccc3)CC2)c(Br)c1
 : 4.81	0.02
19) Cc1sc2ncn(CC(=O)NCC(=O)N3CCC4(CC3)OCCO4)c(=O)c2c1C
 : 0.44	-0.91
20) Cc1cc(OCC(=O)NCC(O)c2ccccc2)c2c3c(c(=O)oc2c1)CCCC3 (stereo unspecified)
 : 0.03	1.78
21) Cc1ccc(-n2c(O)c(C=Nc3ccc(S(=O)(=O)N(C)C)cc3)c(=O)[nH]c2=O)cc1
 : 1.57	0.41
22) CC(C)NCC(O)c1ccc(C2CCCC2)cc1 (stereo unspecified)
 : 1.55	0.2
23) CCOC(=O)C(NC(=O)CC)(Nc1ccc(C(O)(C(=O)OCC)C(F)(F)F)cc1C)C(F)(F)F (stereo unspecified)
 : 0.77	-0.13
24) C[N+]12CCC(CC1)C(C(O)(c1ccccc1)c1cccs1)C2 (stereo unspecified)
 : 0.91	0.08
25) CCCCn1c(NS(=O)(=O)c2ccc(C)cc2)c(C(=O)OCC)c2nc3ccccc3nc21
 : 0.2	0.36
26) COc1cc(CN2CCN(C(=O)Cc3ccccc3)CC2)cc(OC)c1OC
 : 0.02	-0.55
27) O=c1[nH]c2ccccc2c(=O)n1-c1ccc(Cl)cc1Cl
 : 1.14	1.08
28) CCOc1ccc(N=Cc2c(O)n(-c3cc(C)cc(C)c3)c(=O)[nH]c2=O)cc1
 : 0.37	0
29) CN1CCN(c2ccc([N+](=O)[O-])cc2Cl)CC1
 : 0.01	-0.03
30) COC(=O)CC1(CC(=O)OC)C(=O)NC(=O)NC1=O
 : 0.16	-1.27

Whole records, looked up by structure. Values in the order: KCNQ2 pot	KCNQ2 pot baseline
`CC(C)NCC(O)c1ccc(C2CCCC2)cc1` (stereo unspecified) reads 1.55	0.2
`CCCCn1c(O)c(C(CC)=NCCCn2ccnc2)c(=O)[nH]c1=O` reads 0.88	0.07
`Cc1ccccc1NS(=O)(=O)c1ccc(OCC(=O)N2CCN(C)CC2)cc1` reads 0.04	-1.5
`Cc1ccc(CN2CCCN(Cc3ccc(C)cc3)S2(=O)=O)cc1` reads 2.09	0.25

Gathered by group, the compounds so far containing fluorine.
The line under a structure holds: KCNQ2 pot	KCNQ2 pot baseline
5) CCOC(=O)C(O)(c1cn(C)c2ccccc12)C(F)(F)F (stereo unspecified)
 : 0.95	-0.46
8) Cc1ccc(S(=O)(=O)CC(C)(O)C(=O)Nc2cccc(C(F)(F)F)c2)cc1 (stereo unspecified)
 : 1.31	0.28
23) CCOC(=O)C(NC(=O)CC)(Nc1ccc(C(O)(C(=O)OCC)C(F)(F)F)cc1C)C(F)(F)F (stereo unspecified)
 : 0.77	-0.13

Following part
The line under a structure holds: KCNQ2 pot	KCNQ2 pot baseline
31) CCOP(=O)(OCC)C(CC)N1CCOCC1 (stereo unspecified)
 : 0.13	1.08
32) Cc1n[nH]c(C)c1CCN
 : 0.07	1.31
33) O=[N+]([O-])[N-][n+]1cnn(Cc2ccc(Cl)cc2)c1
 : 3.1	-1.94
34) CC1(C)CC(n2[nH]c(=O)c3c2NC(=O)CSC3c2ccc(F)cc2)CCO1 (stereo unspecified)
 : 0.9	1.6
35) COc1cc(CN2CCCC(C(=O)c3sccc3C)C2)cc(OC)c1O (stereo unspecified)
 : 0.28	-2.96
36) CCC12CN3CCN(CC(C3)/C1=N/NC(=O)c1ccncc1)C2
 : 1.23	-1.7
37) CN1C(=O)N(C)C(=O)C2(Cc3ccccc3N3CCOCC32)C1=O (stereo unspecified)
 : 1.01	0.84
38) C[C@]12CCC(=O)C=C1CC[C@@H]1C2CC[C@]2(C)C(=O)CCC12 (stereo partly specified)
 : 0.47	3.26
39) CCOC(=O)C(O)(c1ccc(NC(=O)c2ccc(Cl)c(Cl)c2)cc1)C(F)(F)F (stereo unspecified)
 : 1.22	-2.05
40) CCc1nc2ccccc2c(=O)n1-c1ccccc1[N+](=O)[O-]
 : 0.89	-0.16
41) CCCCOC(=O)COc1cc(C)cc2oc(=O)c3c(c12)CCC3
 : 0.87	-0.15
42) O=C(O)C1C2CCC(O2)C1C(=O)NC1CCCCC1 (stereo unspecified)
 : 0.7	-0.97
43) NC(=O)c1cc(N2CC2)c([N+](=O)[O-])cc1[N+](=O)[O-]
 : 0.48	-1.41
44) C=CCn1c(O)c(C=NCCN2CCNCC2)c(=O)[nH]c1=O
 : 1.47	1.16
45) O=c1c2ccccc2nc(-c2ccoc2)n1-c1ccccc1
 : 0.09	1.07
46) COc1cc(C(=O)OC2C[C@H]3CC[C@@H](C2)N3)ccc1O (stereo partly specified)
 : 0.36	1.55
47) CC(C)OC(=O)c1c(N)n(CC2CCCO2)c2nc3ccccc3nc12 (stereo unspecified)
 : 1.77	-1.77
48) COc1ccc(Cl)cc1NC1=NCC(C)S1 (stereo unspecified)
 : 0.23	3.82
49) CNP(=S)(NC)OCCOc1ccc(OC)cc1
 : 0.03	1.86
50) O=C(NCc1cccnc1)C(Cl)(Cl)Cl
 : 0.96	-0.73
51) CCOc1ccc2[nH]c(=O)c(CN(CCO)C3(c4nnnn4C4CCCCC4)CCCCC3)cc2c1
 : 1.35	1.58
52) COc1ccc(CCn2c(O)c(C=Nc3ccccc3F)c(=O)[nH]c2=O)cc1OC
 : 0.11	-0.92
53) N#CC1(c2ccccc2)CCN(C2CC(=O)N(c3ccc4c(c3)OCO4)C2=O)CC1 (stereo unspecified)
 : 1.87	0.05
54) N=C1c2ccccc2CN1NC(=O)c1ccc(Br)o1
 : 1.6	1.37
55) O=C(O)c1ccc(-[n+]2c(-c3ccccc3)cc(-c3ccccc3)cc2-c2ccccc2)cc1
 : 1.95	0.08
56) CN1CCC(N(C)c2ccc(C(N)=O)cc2[N+](=O)[O-])CC1
 : 0.23	0.08
57) CCCSc1nc(O)c(CC)c(=O)n1C(C)CC (stereo unspecified)
 : 0.94	0.14
58) CN1CCN(c2ncnc3ccc(Br)cc23)CC1
 : 1.31	1.14
59) CC(C)=CCOc1c2occc2cc2ccc(=O)oc12
 : 0.02	-0.16
60) COc1ccc(C=C2C(=O)N(C)C(=O)N(C)C2=O)cc1COc1ccc(NC(C)=O)cc1
 : 0.02	-0.78

Entries from the list above containing bromine:
The line under a structure holds: KCNQ2 pot	KCNQ2 pot baseline
18) Cc1cc(Br)c(NC(=O)CN2CC=C(c3ccccc3)CC2)c(Br)c1
 : 4.81	0.02
54) N=C1c2ccccc2CN1NC(=O)c1ccc(Br)o1
 : 1.6	1.37
58) CN1CCN(c2ncnc3ccc(Br)cc23)CC1
 : 1.31	1.14

Some of these compounds in order of formula weight, ascending:
The line under a structure holds: KCNQ2 pot	KCNQ2 pot baseline
43) NC(=O)c1cc(N2CC2)c([N+](=O)[O-])cc1[N+](=O)[O-]
 : 0.48	-1.41
46) COc1cc(C(=O)OC2C[C@H]3CC[C@@H](C2)N3)ccc1O (stereo partly specified)
 : 0.36	1.55
38) C[C@]12CCC(=O)C=C1CC[C@@H]1C2CC[C@]2(C)C(=O)CCC12 (stereo partly specified)
 : 0.47	3.26
58) CN1CCN(c2ncnc3ccc(Br)cc23)CC1
 : 1.31	1.14
35) COc1cc(CN2CCCC(C(=O)c3sccc3C)C2)cc(OC)c1O (stereo unspecified)
 : 0.28	-2.96
51) CCOc1ccc2[nH]c(=O)c(CN(CCO)C3(c4nnnn4C4CCCCC4)CCCCC3)cc2c1
 : 1.35	1.58

The list continues.
The line under a structure holds: KCNQ2 pot	KCNQ2 pot baseline
61) Cc1c(N=Cc2c(O)n(CCc3ccc(F)cc3)c(=O)[nH]c2=O)c(=O)n(-c2ccccc2)n1C
 : 0.22	-1.67
62) O=C(O)c1cccc(N=Nc2c(O)[nH]c(=O)[nH]c2=O)c1
 : 0.11	-0.01
63) COc1ccc(-n2nc(C(=O)NCC(=O)N3CCC4(CC3)OCCO4)c3ccccc3c2=O)cc1OC
 : 0.29	-1.22
64) CCOP(=O)(OCC)C(C)(C)NC(=O)C(Cl)(Cl)Cl
 : 1.19	-0.59
65) CN1CC(C(=O)c2ccccc2)C(c2ccccc2)C1 (stereo unspecified)
 : 1.25	0.09
66) C#CC[N+]1(C)C2CCC1CC(O)C2 (stereo unspecified)
 : 1.15	1.25
67) O=C(c1ccc2c(c1)ncn2-c1ccc(F)cc1F)N1CCC2(CC1)OCCO2
 : 1.43	-1.39
68) COc1ccc(N/N=C/c2c(O)n(-c3ccc(C)c(C)c3)c(=O)[nH]c2=O)cc1
 : 0.28	0.68
69) O=C1NC(=O)N(Cc2ccccc2)C(=O)/C1=C/N1CCCc2ccccc21
 : 0.01	-0.05
70) COC(=O)c1c(C)[nH]c(C(=O)C(Cc2ccccc2)N(C)C)c1C (stereo unspecified)
 : 1.48	-1.3
71) CNCCCc1ccccc1
 : 0.47	0.56
72) Cc1cccc(NC2=NCCCS2)c1C
 : 1.17	-0.2
73) Fc1ccccc1CN1CCN(c2ccc(Cl)cc2)CC1
 : 0.49	-0.04
74) Cc1[nH]c2ccccc2c1CCNCc1cccnc1
 : 0.03	-1.49
75) CCc1cc(=O)oc2c(C)c(OCC(=O)N3C[C@H]4C[C@@H](C3)c3cccc(=O)n3C4)ccc12
 : 0.16	0.15
76) c1ccc(P(c2ccccn2)c2ccccn2)cc1
 : 0.57	-0.05
77) CCC(=O)OC1(c2cccc(C)c2)CC(C)N(C)CC1C (stereo unspecified)
 : 0.16	-0.01
78) Nc1cncc(C(=O)O)c1
 : 0.55	·
79) COc1ccc(CCNCc2sccc2C)cc1
 : 2.18	0.87
80) COc1ccc(C2NCc3ccccc3-n3cccc32)cc1 (stereo unspecified)
 : 0.02	-0.64
81) C/C(=N\N(C)c1ccccc1)c1c(O)[nH]c(=O)[nH]c1=O
 : 1.04	0.28
82) Cc1ccsc1C(=O)C1CCCN(Cc2cnc(N3CCOCC3)s2)C1 (stereo unspecified)
 : 0.68	-0.03
83) Cn1c(O)c(C=NCCN2CCNCC2)c(=O)[nH]c1=O
 : 0.47	-1.26
84) CCC1(CCc2ccncc2)C(=O)NC(=O)NC1=O
 : 0.67	0.71
85) CCC(C)n1c(O)c(C=NCc2cccnc2)c(=O)[nH]c1=S (stereo unspecified)
 : 0.15	-1.31
86) CP(=O)(O)CN1CCCCC1
 : 0.99	-0.44
87) O=C1NC(=O)N(Cc2ccccc2)C(=O)/C1=C\c1ccco1
 : 1.21	-0.63
88) Cn1c(O)c(C=NCCCCCCCCCCC(=O)O)c(=O)n(C)c1=O
 : 0.75	-0.01
89) Nc1c([N+](=O)[O-])cc(F)c(N2CCNCC2)c1Br
 : 0.98	-0.33
90) Cc1ccc(CC(=O)N2CCN(C)CC2)cc1
 : 0.49	-0.75

(list continues)
The line under a structure holds: KCNQ2 pot	KCNQ2 pot baseline
91) COC(=O)C1=C(c2ccc(S(C)(=O)=O)cc2)C[C@@H]2CC[C@H]1N2C(=O)NCc1ccccc1
 : 1.44	0.52
92) C#C[C@]1(O)CCC2C3CCC4=C/C(=N/OCC(=O)NC(C)C(=O)NC(CCSC)C(=O)O)CC[C@]4(C)C3CC[C@@]21C (stereo partly specified)
 : 1.84	-0.52
93) CC(=NCc1ccc2c(c1)OCO2)c1c(O)n(C)c(=O)n(C)c1=O
 : 1.35	2.39
94) N=C1c2ccccc2CN1NC(=O)C1CC1
 : 2.17	-1.4
95) O=C(CN1CCCC1=O)N1CCOCC1
 : 0.99	-0.11
